KCNQ2 inh: KCNQ2 potassium channel inhibitors, primary screen, cell-based, CHO-K1, FluxOR thallium flux, B-score (AID 2156). O88943. 20 min; hits give low values; only compounds with negative scores are shown here; some inactives read as strong as hits. B-score at 10 µM. actives 1.1% (n = 310,000);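 active = fluorescence ratio B-score at most minus 3 library SDs, with starting brightness B-score within 2 library SDs, cut at about -5.5 in these data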
Target sequence (O88943 whole entry, looked up): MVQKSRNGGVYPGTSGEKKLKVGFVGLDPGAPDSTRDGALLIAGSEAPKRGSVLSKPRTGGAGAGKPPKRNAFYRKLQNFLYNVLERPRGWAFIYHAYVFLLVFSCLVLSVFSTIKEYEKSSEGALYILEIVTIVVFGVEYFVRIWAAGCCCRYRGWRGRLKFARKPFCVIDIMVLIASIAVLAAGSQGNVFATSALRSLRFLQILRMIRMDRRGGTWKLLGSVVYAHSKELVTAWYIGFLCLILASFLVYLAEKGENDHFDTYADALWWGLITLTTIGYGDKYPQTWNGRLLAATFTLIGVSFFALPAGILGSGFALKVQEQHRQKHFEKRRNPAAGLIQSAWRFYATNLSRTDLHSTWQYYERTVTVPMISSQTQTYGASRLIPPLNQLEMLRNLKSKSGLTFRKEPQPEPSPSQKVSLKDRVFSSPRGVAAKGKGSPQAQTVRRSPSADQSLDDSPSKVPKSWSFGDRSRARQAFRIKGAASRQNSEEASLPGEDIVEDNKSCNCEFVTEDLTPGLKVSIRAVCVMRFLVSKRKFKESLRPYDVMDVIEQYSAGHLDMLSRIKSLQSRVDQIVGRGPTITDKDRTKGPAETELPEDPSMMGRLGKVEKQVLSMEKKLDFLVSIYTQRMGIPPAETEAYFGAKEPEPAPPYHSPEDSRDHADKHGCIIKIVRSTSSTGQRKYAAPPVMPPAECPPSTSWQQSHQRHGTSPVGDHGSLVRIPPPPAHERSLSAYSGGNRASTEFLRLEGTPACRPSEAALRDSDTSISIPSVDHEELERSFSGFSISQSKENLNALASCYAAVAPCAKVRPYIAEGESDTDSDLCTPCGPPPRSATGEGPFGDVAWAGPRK
KCNQ2 inh baseline: recorded beside KCNQ2 inh, whose call it bears; B-score; measured here: initial fluorescence intensity artifact check;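 brightness before thallium and not channel activity; 0 = typical well and far values either way flag optical interference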
Active calls of the source: *; i = inactive.

Value order – KCNQ2 inh baseline, KCNQ2 inh
> CC(=O)C1=C(O)C(=O)N(Cc2ccccc2)C1c1ccc(Br)cc1 (stereo not drawn)
  1.9, i
> COc1ccc(CNC(=O)C2CC(=O)N(c3ccc(OCC(=O)N4CCCCC4)cc3)C2)cc1 (stereo not drawn)
  -0.15, i
> COc1cccc(CN(C)C(=O)c2cccnc2SC)c1OC
  0.31, i
> Cc1ccc(CN(C(=O)c2csnn2)C(C(=O)NC2CCCC2)c2ccccn2)cc1 (stereo not drawn)
  2.1, i
> CC(=O)Nc1ccc(-c2nnn(CC(=O)c3ccc(F)cc3)n2)cc1Cl
  -2.9, i
> Cc1ccc(C(=O)N2CCN3C(=O)c4ccccc4C23c2ccc(Cl)cc2)cc1 (stereo not drawn)
  -0.91, i
> CC(C)N1CCc2c(sc(NC(=O)c3cc4cc([N+](=O)[O-])ccc4s3)c2C(N)=O)C1
  1.8, i
> Cc1ccc(C(=O)Nc2ccccc2C(=O)O)cc1NC(=O)COc1c(C)cccc1C
  -0.71, i
> O=C(NCCN1CCOCC1)C(=O)NCC1OCCN1S(=O)(=O)c1ccc(Br)cc1 (stereo not drawn)
  -0.52, i
> C=CCN(CC(=O)O)S(=O)(=O)c1ccccc1C(F)(F)F
  0.38, i
> Cc1n[nH]c(=O)nc1NCc1ccccc1Cl
  -1.9, i
> Cc1cc(C)c2c(CN3CCCCC3C)cc(=O)oc2c1 (stereo not drawn)
  0.56, i
> CCCc1cc(-c2[nH]ncc2-c2ccc3c(c2)OCCCO3)c(O)cc1O
  -2.6*, -8.5*
> Cc1ccc(O)c(C(CC(=O)NC2CCCCC2)c2ccccc2)c1 (stereo not drawn)
  0.92, i
> Cc1cc(C(=O)COc2ccc(Cl)cc2Br)c(C)n1C
  0.66, i
> O=C1N/C(=N\N=C\c2cccs2)SC1Cc1ccc(Cl)cc1 (stereo not drawn)
  2.4, i
> Cc1ccc(-n2ccc(=O)c(-c3ccnc(SCc4cccc(Cl)c4)n3)n2)cc1
  -0.12, i
> C=CCCCCCCCCC(=O)NNC1CC(=O)N(c2ccccc2)C1=O (stereo not drawn)
  0.96, i
> CCc1nn(CC(=O)NCCc2ccc(Cl)cc2)c(=O)c2cccn12
  0.41, i
> COc1ccc(CNC(=O)CSc2nc3cccnc3s2)cc1
  0.96, i

Rewritten with each value named: entries from further up.
CC(C)N1CCc2c(sc(NC(=O)c3cc4cc([N+](=O)[O-])ccc4s3)c2C(N)=O)C1
  KCNQ2 inh baseline: 1.8; KCNQ2 inh: i
Cc1ccc(C(=O)Nc2ccccc2C(=O)O)cc1NC(=O)COc1c(C)cccc1C
  KCNQ2 inh baseline: -0.71; KCNQ2 inh: i
O=C(NCCN1CCOCC1)C(=O)NCC1OCCN1S(=O)(=O)c1ccc(Br)cc1 (stereo not drawn)
  KCNQ2 inh baseline: -0.52; KCNQ2 inh: i

Laid out differently: 5 of the compounds above.
SMILES	KCNQ2 inh baseline	KCNQ2 inh
O=C1N/C(=N\N=C\c2cccs2)SC1Cc1ccc(Cl)cc1 (stereo not drawn)	2.4	i
Cc1ccc(-n2ccc(=O)c(-c3ccnc(SCc4cccc(Cl)c4)n3)n2)cc1	-0.12	i
C=CCCCCCCCCC(=O)NNC1CC(=O)N(c2ccccc2)C1=O (stereo not drawn)	0.96	i
CCc1nn(CC(=O)NCCc2ccc(Cl)cc2)c(=O)c2cccn12	0.41	i
COc1ccc(CNC(=O)CSc2nc3cccnc3s2)cc1	0.96	i

(cont.)
Value order – KCNQ2 inh baseline, KCNQ2 inh
> COc1cc(/C=N/NC(=S)NCc2ccco2)cc(OC)c1OC
  -0.56, i
> COc1ccc(C)cc1NC(=O)CN1C(=O)COc2ccc(S(=O)(=O)N3CCCCC3)cc21
  -0.95, i
> O=C(c1cccc(C(=O)N(c2ccccn2)C2CCCCC2)c1)N(c1ccccn1)C1CCCCC1
  0.67, i
> O=C(Cc1ccccc1)NNc1ccc2ccccc2c1
  0.25, i
> O=C(OCc1nc2ccsc2c(=O)[nH]1)c1cc(Br)c(Br)s1
  -0.87, i
> CSc1nnc(N2C(=O)C(O)=C(C(=O)c3ccc(C)o3)C2c2ccc(C)cc2)s1 (stereo not drawn)
  0.09, i
> CCCCn1c(N)c(N(CC)C(=O)CCNC(=O)NC23CC4CC(CC(C4)C2)C3)c(=O)[nH]c1=O
  2.1, i
> NC(=O)CC(NC(=O)c1cccc(Br)c1)c1ccc(NC2CCN(Cc3ccccc3)CC2)c([N+](=O)[O-])c1 (stereo not drawn)
  0.55, i
> Cc1cc(-c2ccccc2C(=O)NCc2ccccc2)on1
  -1.1, i
> COc1ccc(/C=C/C(=O)N(CC(C)C)CC(C)C)cc1Br
  -0.83*, -5.9*
> Cc1cccc(-c2noc(CCc3ccccc3)n2)c1
  -0.25, i
> Cn1c(SCC(=O)N2c3ccccc3Sc3ccccc32)nc2ccccc21
  -0.32, i
> COc1ccccc1N1CCN(C(=O)C(OC(C)=O)c2ccccc2)CC1 (stereo not drawn)
  -0.76, i
> CCOC(=O)CSc1ccc(-c2nc3ccccc3[nH]2)cn1
  1.1, i
> COc1ccc(N(C(=O)c2csnn2)C(C(=O)NC2CCCC2)c2ccccc2)cc1 (stereo not drawn)
  1.3, i
> COc1ccccc1CNC(=O)C(C)n1nc(C)n2c(cc3occc32)c1=O (stereo not drawn)
  -0.41, i
> CCNC(=O)CC1SC(=Nc2ccccc2C)N(C)C1=O (stereo not drawn)
  0.32, i
> CC(=O)C(Cc1ccccc1)NC(=O)CN1CCc2ccccc2C1 (stereo not drawn)
  1.2, i
> Cc1cccc(C)c1NC(=O)COC(=O)CSc1nnc(N)s1
  -0.25, i
> O=C(CCC(=O)N1CCSc2ccccc21)NC1CCCCC1
  1, i

(cont.)
Value order – KCNQ2 inh baseline, KCNQ2 inh
> COc1ccc2nc3oc(C(=O)NCCCOC(C)C)cc3cc2c1
  -0.14, i
> CCOc1ccc(CCNC(=O)COC(=O)CNS(=O)(=O)c2ccc(NC(C)=O)cc2)cc1OCC
  1.1, i
> CCC(=O)NC(c1ccccc1Cl)c1c(O)ccc2ccccc12 (stereo not drawn)
  1.9, i
> O=C(O)CC(CC(=O)Nc1ccc(C(=O)O)cc1)c1ccccc1 (stereo not drawn)
  1.3, i
> O=C(Nc1cc([N+](=O)[O-])ccc1N1CCCC1)c1cccs1
  -0.46, i
> Nn1c(SCc2nc3ccccc3[nH]2)nnc1-c1cccnc1
  -0.01, i
> COc1ccc(C(=O)N2CCC(c3ccccc3)CC2)c(OC)c1OC
  0.66, i
> CCCCn1c(N)c(N(CCOC)C(=O)C2CCN(S(=O)(=O)c3ccc(F)cc3)CC2)c(=O)[nH]c1=O
  -0.37, i
> CCCCn1c2nc3ccccc3nc2c2c(=O)n(CCC)cnc21
  0.13, i
> Cc1ccc(NC2Nc3cc(C)nn3S2)c(C)c1 (stereo not drawn)
  -0.36, i
> Cc1ccc(C(=O)COC(=O)C2CC(=O)N(c3nc(-c4ccccc4)cs3)C2)cc1C (stereo not drawn)
  -3.1, i
> COc1ccc(NC(=O)c2cccc(-n3c(C)ccc3C)c2)c(OC)c1
  1, i
> Oc1cccc(Nc2nc(NCC3CCCO3)c3ccccc3n2)c1 (stereo not drawn)
  0.11, i
> O=C(COC(=O)Cc1ccc(Br)cc1)NC1CCCCCC1
  2.1, i
> Cc1cnc(C(=O)OCC(=O)Nc2sc3c(c2C#N)CCC3)cn1
  0.25, i
> O=C(COC(=O)c1cc(-c2ccco2)nc2ccccc12)NCc1ccc2c(c1)OCO2
  -0.55, i
> COc1ccccc1NC(=O)Nc1ccccc1C#N
  -2.4, i
> COc1ccc(OC)c(CN2CCC(Cc3ccccc3)CC2)c1
  -0.34, i
> CC(C)c1cccc(C(C)C)c1NC(=O)COC(=O)c1ccc2c(c1)S(=O)(=O)c1ccccc1C2=O
  -1.7, i
> Cn1c(CNS(=O)(=O)c2ccc(Br)cc2)n[nH]c1=S
  0.61, i

Other compounds
Value order – KCNQ2 inh baseline, KCNQ2 inh
> CCN(C(=O)COC(=O)c1ccccc1NCCO)c1cccc2ccccc12
  0.33, i
> CCOCCCNC(=S)N(Cc1ccccc1)Cc1nc2ccccc2c(=O)[nH]1
  -1.2, i
> Cc1ccccc1N1C(=O)C2ON(c3ccccc3)C(c3cccnc3)C2C1=O (stereo not drawn)
  -1.4, i
> CC(c1ccco1)N(C(=O)c1cc(Cl)cc(Cl)c1)c1ccccn1 (stereo not drawn)
  -1.1, i
> COc1ccc(C(=O)C(OC(=O)c2ccccc2)c2ccccc2)cc1 (stereo not drawn)
  -1.1*, -7*
> COc1ccc(NC(=O)CSc2nnc(N)s2)cc1
  0.85, i
> CCn1c(CN2CCOCC2)nnc1SCC(=O)Nc1ccc(C)cc1
  0.07, i
> CCCC1=Nc2cc(C(=O)N3CCCC3)ccc2Sc2ccc(C)cc21
  -1.6, i
> C=C1CCC2C(C)(C)[C@H](O)CC[C@@]2(C)[C@@H]1COc1cc(=O)oc2ccccc12 (stereo partly drawn)
  -0.07, i
> CCCOC(=O)c1ccc(NC(=O)CN(C)Cc2cccs2)cc1
  -1.6, i
> Cc1cc(F)ccc1S(=O)(=O)N1CCCOC1CNC(=O)C(=O)NC1CCCC1 (stereo not drawn)
  -0.37, i
> Cc1c(-c2ccccc2)cn2c1-c1ccc(C)n1CC2
  0.57, i
> CC1(C)CC(=O)c2cnc(N3CCN(c4ccccc4)CC3)nc2C1
  -0.86, i
> CCN1CNC(=S)N(c2ccccc2OC)C1
  2.7, i
> O=C(CSc1nnc(Cc2cccs2)n1C1CCCCC1)N1CCCc2ccccc21
  -1.3*, -6.5*
> O=C(N/C(=C/c1ccc(Cl)cc1)C(=O)N1CCCC1)c1ccccc1
  0.41, i
> Cc1c(/C(O)=C2/C(=O)C(=O)N(CCN3CCOCC3)C2c2ccccn2)cnn1-c1ccccc1 (stereo not drawn)
  -0.28, i
> CCOc1ccc(C(=O)Cn2cnnc2C#N)cc1
  1.5, i
> c1ccc(C2Nc3cccc4cccc(c34)N2)cc1
  -1.4, i
> Cc1ccc(CNC(=O)Cn2cnc(S(=O)(=O)N3CCCCC3)c2)o1
  -0.36, i

Remaining list, next part.
Value order – KCNQ2 inh baseline, KCNQ2 inh
> S=c1[nH]nc(CSc2nc3ccccc3s2)n1Cc1ccccc1
  -0.63, i
> COc1ccc(C2c3ccsc3CCN2C(C)=O)cc1 (stereo not drawn)
  -0.92, i
> Nc1c(C(=O)Nc2ccc3c(c2)OCCO3)nnn1Cc1ccc(F)cc1
  0.53, i
> Cc1ccc(CNC(=O)Cn2cncn2)cc1
  -0.5, i
> Cc1nc(-c2ccccc2)nc2[nH]c(C(C)C)cc(=O)c12
  -0.23, i
> Cc1c(C(=O)N2CCCC2)oc2c1-c1nn(CC(=O)NCCCOC(C)C)cc1CC2
  0.13, i
> Cc1ncc(C[n+]2csc(CCO)c2C)c(N)n1
  0.93, i
> COC(=O)c1ccc(NC(=O)CCn2cccc2)cc1
  -2.2, i
> Cc1cc(Br)c2[nH]cc(CCNC(=O)c3ccco3)c2c1
  -0.8, i
> COc1ccc(C2(c3ccc(OC)cc3)NC(=O)N(CC(=O)Nc3ccc(C(=O)N(C)C)cc3)C2=O)cc1
  1.2, i
> O=C(OCCN1C(=O)c2cccc3c(N4CCOCC4)ccc(c23)C1=O)c1cccc(Cl)c1
  10, i
> CC(=O)c1cccc(N(C(=O)c2ccco2)C(C(=O)NC2CCCC2)c2ccc(N3CCOCC3)cc2)c1 (stereo not drawn)
  0.16, i
> O=C(CCCn1c(=O)oc2ccccc21)N1CCc2ccccc2C1
  -0.87, i
> CCOC(=O)c1ccc(N2C(=O)C(O)=C(C(C)=O)C2c2ccc(O)c(OC)c2)cc1 (stereo not drawn)
  1.9, i
> Cc1cccc(C)c1NC(=O)CN(c1ccccn1)S(=O)(=O)c1ccc(F)cc1
  0.04, i
> Cc1cc(C)nc(/N=C2\NC(=O)CC(C(=O)O)N2CCc2c[nH]c3ccccc23)n1 (stereo not drawn)
  -1.5, i
> Cc1c(C(=O)Nc2ccc(F)cc2)sc2ncn(CC(=O)N3CCCCC3)c(=O)c12
  -2.1, i
> CCOc1ccc(CN2CCN(Cc3ccc4cc(F)ccc4n3)CC2CCO)cc1 (stereo not drawn)
  2.2, i
> Cc1ccc(Oc2cc(NC(=O)CCCn3nc([N+](=O)[O-])c(Cl)c3C)cc([N+](=O)[O-])c2)cc1
  0.54, i
> COc1ccc(/C=C2\SC(=O)N(CCCC(=O)Nc3ccc(C(=O)O)cc3)C2=O)cc1OC
  2.6, i

The list continues:
Value order – KCNQ2 inh baseline, KCNQ2 inh
> CC(NCC(=O)Nc1cc(S(=O)(=O)N2CCCCCC2)ccc1Cl)c1ccccc1 (stereo not drawn)
  0.18, i
> COc1cccc(C(=O)COc2ccccc2-c2ccccc2)c1
  -1.6, i
> CCCN1CCN(C(=O)C(C)n2nc(C)c3sc4ccccc4c3c2=O)CC1 (stereo not drawn)
  0.24, i
> COc1ccccc1Cn1c(C)nnc1-c1cnn(C)c1N
  0.92, i
> CCCC(=O)NC(c1ccc(OC)cc1)c1c(O)ccc2ccccc12 (stereo not drawn)
  1.1, i
> O=C1N/C(=C/c2cccn2-c2ccc(F)cc2)C(=O)N1Cc1ccccc1F
  0.12, i
> CC(=O)NC1(C(F)(F)F)NC(=O)N(c2ccc(F)cc2)C1=O (stereo not drawn)
  0.07, i
> CCC(C)NC(=O)CC(NS(=O)(=O)c1ccc(Cl)cc1)c1ccco1 (stereo not drawn)
  3.1, i
> Cc1cnc(NC(=O)Cc2ccc(Br)cc2)s1
  2, i
> O=C(CSc1nnc(-c2cccnc2)n1Cc1ccccc1)NCc1ccccc1
  1.5, i
> O=C(CSc1c2c(nc3ccccc13)CCCC2)NCc1ccco1
  -0.85, i
> Cc1oc(-c2ccc3c(c2)OCCO3)cc1C(=O)NCC(=O)O
  0.68, i
> COc1ccc(C(=O)NCCOC(C)C)cc1OC1CCN(C(C)=O)CC1
  -0.05, i
> COc1cccc(-c2nc(CS(=O)CC(=O)NCCc3ccccc3)c(C)o2)c1 (stereo not drawn)
  0.26, i
> COC(=O)CSc1nnc(-c2cccnc2)n1C
  0.7, i

This is a subset; count on the stated rates, not on these rows.
